Assay outcomes from PubChem BioAssay.
RGS16-Gao: modulators of RGS16 binding to Galphao, primary screen, biochemical, human proteins, multiplexed bead flow cytometry; bead-based flow cytometry RGS16-Galphao binding, fluorescence; actives lie on both sides; AID 1441, 2008; Regulator of G-protein signaling 16 (Homo sapiens) + Guanine nucleotide-binding protein …; binding response (% of control), % at 10 µM; 220,000 compounds, 0.38% hits;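 active = below 25% or above 175%, edge rows of some plates excepted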;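 note: Galphao activated by GDP with aluminum fluoride before binding; 100% = wells without compound and 0% = beads without RGS; some results beyond the cut were filed as inactive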
GALR2 agonist: GALR2 receptor agonists, primary screen, cell-based; GALR2-expressing cells, agonist activation read-out; activation, %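 (tested at 5 µM)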; 140,000 compounds, 0.48% hits;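 active = above mean plus 3 SD of all compounds, about 5% in these data, not always enough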;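 note: 0% = vehicle buffer wells and 100% = reference agonist at full effect; tested in CHO reporter cells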
Insulin prom inh: inhibitors of insulin promoter-driven GFP, primary screen, imaging, TRM-6 cells (human fetal islet line), eGFP reporter, cell count | reporter expression induced with tamoxifen | inhibition, % at 2 µM | 130,000 compounds, 0.9% hits | AID 1273, 2008;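 active = inhibition above the mean plus 3 SD, with well images judged a real hit on visual review, cut at about 60% in these data, passing the limit was not always enough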
PKD1 inh: inhibitors of human PKD1 kinase, biochemical, fluorescence polarization. Serine/threonine-protein kinase D1 (Homo sapiens), Q15139. PKD1 kinase fluorescence polarization assay. inhibition, %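 (about 10 µM by stock and volumes)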. 200,000 compounds, 0.056% hits. AID 797, 2007;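 active = inhibition of 50% or more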;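 note: controls were vehicle for no effect and a reference inhibitor for full effect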
Target sequence (Q15139 whole entry, looked up): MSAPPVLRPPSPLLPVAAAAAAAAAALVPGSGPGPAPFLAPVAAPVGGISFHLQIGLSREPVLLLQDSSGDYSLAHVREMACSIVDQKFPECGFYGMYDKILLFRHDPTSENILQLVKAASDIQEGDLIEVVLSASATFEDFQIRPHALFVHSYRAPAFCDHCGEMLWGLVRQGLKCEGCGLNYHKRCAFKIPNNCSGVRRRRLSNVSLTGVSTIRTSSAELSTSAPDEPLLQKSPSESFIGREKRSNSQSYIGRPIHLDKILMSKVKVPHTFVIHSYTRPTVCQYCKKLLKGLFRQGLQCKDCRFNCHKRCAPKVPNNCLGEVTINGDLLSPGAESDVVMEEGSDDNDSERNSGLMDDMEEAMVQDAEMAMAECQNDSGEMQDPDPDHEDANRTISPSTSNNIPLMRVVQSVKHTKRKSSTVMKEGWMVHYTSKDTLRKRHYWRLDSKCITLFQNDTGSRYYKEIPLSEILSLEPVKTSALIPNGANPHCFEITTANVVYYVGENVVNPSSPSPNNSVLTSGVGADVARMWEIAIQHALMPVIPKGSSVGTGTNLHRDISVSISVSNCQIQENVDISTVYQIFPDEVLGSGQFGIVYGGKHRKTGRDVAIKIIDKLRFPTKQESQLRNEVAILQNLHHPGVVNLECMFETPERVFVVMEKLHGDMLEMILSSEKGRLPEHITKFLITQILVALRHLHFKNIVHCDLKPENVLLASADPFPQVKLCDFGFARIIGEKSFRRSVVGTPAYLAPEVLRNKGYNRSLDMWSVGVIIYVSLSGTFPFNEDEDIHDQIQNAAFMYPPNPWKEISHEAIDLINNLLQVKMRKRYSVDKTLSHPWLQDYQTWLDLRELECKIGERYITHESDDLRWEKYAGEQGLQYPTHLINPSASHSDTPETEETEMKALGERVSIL
HSV augment: enhancers of HSV replication in host cells, fold increase, host cell viability. HSV replication augmentation in cells. maximum fold increase. 220,000 compounds, 0.005% hits;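 active = peak rise of 1.5-fold or more in the series; tested in PC3 cells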;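 note: first round at 10 µM; read as green reporter fluorescence; hits show the peak of a series up to 25 µM; 1 = signal of infected wells without compound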
Insulin prom inh cell count: also measured in Insulin prom inh; calls as there; normalized cell count, %; measured here: cell count, toxicity; reference of the scale not given here;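 cells exposed to compound for 48 h; stained nuclei by imaging scaled within each plate; lower means fewer cells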
HSV augment primary fold: second read-out of HSV augment, no call of its own (marks repeat the call); fold increase; compound at 10 µM; measured here: primary screen fold increase 10 uM; tested in PC3 cells;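 GFP signal in the first replicate; 1 = infected wells without compound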
* = called active by the depositor; i = inactive; x = no result given. The order is random; overall some 1.3% were active at least once.

SMILES | RGS16-Gao | GALR2 agonist | Insulin prom inh | Insulin prom inh cell count | PKD1 inh | HSV augment | HSV augment primary fold
O=C(CSc1cccc[n+]1[O-])Nc1ccc([N+](=O)[O-])cc1Cl | 98.0 | x | x | x | 2.6 | i | 1
NC(=O)c1ccccc1OC1CCC1 | 99.1 | x | x | x | x | i | 0.91
CCn1cc(S(=O)(=O)Nc2ccc3c(c2)OCCO3)cn1 | 100.3 | x | x | x | -2.1 | i | 0.95
CCCCN(CC(=O)NC(C)(C)C)C(=O)C(=O)Nc1ccc2c(c1)OCCO2 | 94.6 | x | x | x | 1.2 | i | 1.02
CC(=O)N(CCC1(C(C)C)CCOC(C)(C)C1)Cc1ccco1 (stereo unspecified) | 98.4 | 0.8 | -3.6 | 71.0 | 4.6 | i | 0.68
Cc1cccc(C)c1NC(=O)CCCSc1nc2ccccc2s1 | 97.0 | -0.6 | -23.1 | 121.5 | -5.8 | i | 0.9
CCC(C)C(=O)N1CCCC(c2nc(-c3cccs3)no2)C1 (stereo unspecified) | 103.8 | -2.0 | -42.9 | 76.3 | -5.0 | i | 0.987
Cc1cnn(-c2cc(Oc3ccccc3)ncn2)c1 | 103.4 | -1.7 | 48.5 | 115.3 | -6.6 | i | 0.957
Cc1ccc(OCCCC(=O)NC(C)c2ccccc2)cc1 (stereo unspecified) | 104.2 | -0.1 | 0.0 | 92.5 | 2.4 | i | 0.88
CCOC(=O)C1=C(CC)Nc2ccccc2N=C1NC(=O)c1ccc(S(=O)(=O)N(C)C)cc1 | 103.9 | -2.1 | -54.8 | 135.1 | 1.8 | i | 1.08
Cc1ccc(Cc2nc(-c3ccncc3)no2)cc1 | 100.4 | x | 0.0 | 71.3 | -6.5 | i | 0.91
COc1ccc(C2(NC(C)=O)CCN(C(=O)c3cccs3)CC2)cc1 | 102.7 | -0.6 | -288.6 | 101.2 | -2.3 | i | 0.95
O=C(c1ccco1)N1CCN(CC(=O)N(C2CCCCC2)C2CCS(=O)(=O)C2)CC1 (stereo unspecified) | 106.8 | 0.1 | 22.2 | 44.6 | -6.2 | i | 1
O=C(CN1CCN(c2ncccn2)CC1)N1CCN(C(c2ccccc2)c2ccccc2)CC1 | x | 1.2 | 10.3 | 61.1 | -4.1 | x | x
CCCn1c2c(c(O)c(C(=O)NCc3ccccc3)c1=O)CCCC2 | 99.9 | -0.3 | -41.7 | 114.7 | -8.5 | i | 1.06
O=C(CCc1nc2ccccc2s1)N1CCN(c2ccccc2)CC1 | 99.2 | x | 16.7 | 66.5 | -3.9 | i | 0.94
Cc1ccc(C(C)(C)C)c(OCCCn2ccnc2)c1 | 110.3 | -0.9 | 23.1 | 67.4 | 2.6 | x | x
CC(=O)OCCCNc1cc(Sc2ccc(Cl)cc2)c2nonc2c1[N+](=O)[O-] | 92.8 | -1.9 | -141.3 | 79.8 | 10.3 | i | 0.6
CS(=O)(=O)N1CCC(C(=O)Nc2ccc(C(F)(F)F)cc2)CC1 | 99.9 | x | -12.5 | 123.6 | -6.1 | i | 0.97
C/C(CC(=O)N1CCN(C=O)CC1)=N\NC(=O)c1ccc([N+](=O)[O-])cc1 | 111.8 | x | 25.0 | 88.8 | -1.9 | i | 0.92
NCCCC[C@H]1CNC(=O)C(=O)N1CCCCC1CCCCC1 | 96.2 | x | x | x | x | i | 1.09
COc1ccc(CCNC(=S)Nc2cccc(C)c2C)cc1 | 95.8 | -0.3 | -56.8 | 134.1 | 2.0 | i | 0.96
Cc1cc(Cl)ccc1OCC(=O)N(Cc1ccco1)C1CCS(=O)(=O)C1 (stereo unspecified) | 110.0 | x | x | x | x | i | 1.17
CN(C)CCCN1C(=O)CSC1c1ccccc1 (stereo unspecified) | 102.5 | -2.0 | x | x | 2.6 | i | 0.92
Cc1ccc(C(C(=O)NCc2ccco2)N(C(=O)CNC(=O)c2cccs2)c2ccc(C)cc2C)cc1 (stereo unspecified) | 99.7 | -0.4 | -8.3 | 130.2 | -11.6 | i | 0.75
CCCCNC(=S)Nc1ccc(Oc2ccccc2)cc1 | 97.9 | x | x | x | -7.0 | i | 0.94
CC(C)(C)NC(=S)Nc1cccc(C(F)(F)F)c1 | 139.3 | x | -66.7 | 97.9 | 2.8 | i | 0.89
CCOC(=O)C1=C(C)OC(N)=C(C#N)C1c1ccc(OC)c(C)c1OC (stereo unspecified) | 99.9 | -0.7 | x | x | -6.5 | i | 1.01
O=C(c1nn2c(C(F)(F)F)cc(-c3cccs3)nc2c1Cl)N1CCCc2ccccc21 | 100.6 | -2.7 | -31.2 | 83.0 | 1.1 | i | 0.9
N#Cc1c(NC(=O)COC(=O)c2ccc(S(=O)(=O)N3CCCC3)cc2)sc2c1CCCCC2 | 104.8 | -1.1 | x | x | 2.4 | i | 1.09
Cc1ccc(NC(=O)C(=O)Nc2ccccn2)cc1 | 100.7 | 0.8 | 26.7 | 105.6 | 6.9 | i | 0.95
CCOC(=O)Cc1nnc(NC(=O)c2ccco2)s1 | 102.3 | -0.5 | 10.0 | 90.1 | 0.7 | i | 0.89
CNCc1c(OCc2ccc(F)cc2)ccc2ccccc12 | 100.7 | x | x | x | -2.1 | i | 0.59
CSc1ncccc1C(=O)OCC(=O)NCc1ccc2c(c1)OCO2 | 97.7 | x | 46.7 | 95.9 | -6.9 | i | 0.93
Cc1ccc(-c2nc(SCC(=O)NCC3CCCO3)c(-c3ccc(C)cc3)[nH]2)cc1 (stereo unspecified) | x | -1.9 | 19.1 | 81.9 | -19.8 | i | 0.83
Cc1ccc(C(=O)NC(=S)Nn2cnnc2)cc1 | 101.9 | -0.7 | x | x | 5.2 | i | 0.93
O=C(NC1CCCCC1)C(c1cccs1)N(Cc1cccs1)C(=O)c1cccs1 (stereo unspecified) | 98.7 | -2.4 | -156.2 | 68.5 | 1.9 | i | 1.06
CCOC(=O)C(CC)n1cnc2c(nnn2-c2ccc(OC)cc2)c1=O (stereo unspecified) | 102.2 | -0.2 | 14.3 | 77.1 | -4.0 | i | 0.91
O=C(c1ccc2ccccc2c1)N1CCN(c2ccc(O)cc2)CC1 | 102.4 | -3.5 | -16.1 | 134.3 | -1.5 | i | 0.72
COc1cc(Br)c(S(=O)(=O)Nc2c(C)n(C)n(-c3ccccc3)c2=O)cc1OC | 101.1 | -1.4 | -52.9 | 168.2 | -4.2 | i | 1.09
Cc1cc(C(=O)CN2C(=O)NC3(CCCc4ccccc43)C2=O)c(C)n1Cc1ccco1 (stereo unspecified) | 96.7 | -0.8 | -2.7 | 113.5 | 2.4 | i | 0.94
Cc1ccc(S(=O)(=O)N(C)Cc2ccc(C(=O)NN=C(CC(C)C)CC(C)C)cc2)cc1 | 108.4 | -0.3 | 14.3 | 123.0 | -2.2 | i | 0.78
C/C(CC(=O)Nc1cc(C)ccn1)=N\NC(=O)C(=O)Nc1cccc(C)c1 | 104.1 | -0.3 | 18.5 | 96.2 | 1.5 | i | 0.97
CC(C)N1CCN(Cc2nc(-c3ccccc3)cs2)CC1CCO (stereo unspecified) | 98.1 | x | x | x | 4.4 | i | 0.99
NS(=O)(=O)c1cccc(NS(=O)(=O)c2ccc(/C=C/C(=O)O)cc2)c1 | 104.2 | x | x | x | x | i | 1.08
CCOc1cc(NC(=O)c2ccco2)c(OCC)cc1NC(=O)c1cc(OC)c(OC)c(OC)c1 | 99.5 | -2.4 | x | x | -9.8 | i | 0.9
Nc1ccccc1OCCOCCOc1ccccc1N | 66.0 | -1.2 | -23.1 | 97.2 | -9.6 | i | 0.93
O=S(=O)(Nc1ccc(-n2cccc2)cc1)c1ccc(Cl)c(Cl)c1 | 100.6 | x | x | x | x | i | 1.13
CC(/C=N\Nc1nnc2c(n1)[nH]c1c(C)cccc12)=C\c1ccco1 | 88.6 | -2.4 | 3.9 | 115.3 | -14.9 | i | 0.92
CCOC(=O)C1(Cc2ccc(Cl)cc2)CCN(C(=O)CCc2ccncc2)CC1 | 99.2 | x | x | x | -2.2 | i | 1.09
CC(Oc1ccccc1F)C(=O)NCCN1CCCCC1 (stereo unspecified) | 101.5 | -3.7 | -50.0 | 107.7 | -5.3 | i | 0.98
Cn1cnc([N+](=O)[O-])c1SCC(O)CN1CCCCC1 (stereo unspecified) | 103.4 | x | x | x | 0.3 | i | 0.92
O=C(Nc1ccc(N2CCN(C(=O)c3ccco3)CC2)cc1)C(c1ccccc1)c1ccccc1 | 102.8 | -1.9 | -9.9 | 95.6 | 2.0 | i | 0.94
CCOC(=O)C1Cn2c(nc3c(c2=O)C(C)(C)Cc2ccccc2-3)S1 (stereo unspecified) | 105.9 | 0.6 | x | x | 5.1 | i | 1.09
N=c1c2c3c(sc2ncn1CCCN1CCOCC1)CCCCC3 | 110.3 | -0.3 | x | x | 9.5 | i | 0.86
CC(C(=O)Nc1ccccc1-c1ccccc1)N1CCN(Cc2ccccc2)CC1 (stereo unspecified) | 96.1 | x | x | x | -6.6 | i | 0.99
CCN(CC)S(=O)(=O)c1cccc(-c2nn(-c3ccccc3)cc2/C=C(\C#N)C(=O)NCc2ccco2)c1 | 99.5 | 0.3 | -7.1 | 81.4 | -4.5 | i | 0.85
Cc1ccc(NC2=C(Cl)C(=O)OC2OC(C)C)cc1 (stereo unspecified) | 98.3 | x | -33.3 | 88.7 | -4.4 | i | 1.01
COC(=O)[C@H](Cc1ccccc1)NC(=O)N1CCN(c2ccc(F)cc2)CC1 | 110.2 | x | x | x | x | i | 0.98
CCOC(=O)NC(NS(=O)(=O)c1ccccc1)(C(=O)OCC)C(F)(F)F (stereo unspecified) | 94.8 | -2.2 | 22.6 | 61.1 | -6.0 | i | 0.96

Some of the entries so far, tab-delimited:
SMILES	RGS16-Gao	GALR2 agonist	Insulin prom inh	Insulin prom inh cell count	PKD1 inh	HSV augment	HSV augment primary fold
Cn1cnc([N+](=O)[O-])c1SCC(O)CN1CCCCC1 (stereo unspecified)	103.4	x	x	x	0.3	i	0.92
O=C(Nc1ccc(N2CCN(C(=O)c3ccco3)CC2)cc1)C(c1ccccc1)c1ccccc1	102.8	-1.9	-9.9	95.6	2.0	i	0.94
CCOC(=O)C1Cn2c(nc3c(c2=O)C(C)(C)Cc2ccccc2-3)S1 (stereo unspecified)	105.9	0.6	x	x	5.1	i	1.09
N=c1c2c3c(sc2ncn1CCCN1CCOCC1)CCCCC3	110.3	-0.3	x	x	9.5	i	0.86
CC(C(=O)Nc1ccccc1-c1ccccc1)N1CCN(Cc2ccccc2)CC1 (stereo unspecified)	96.1	x	x	x	-6.6	i	0.99
CCN(CC)S(=O)(=O)c1cccc(-c2nn(-c3ccccc3)cc2/C=C(\C#N)C(=O)NCc2ccco2)c1	99.5	0.3	-7.1	81.4	-4.5	i	0.85
Cc1ccc(NC2=C(Cl)C(=O)OC2OC(C)C)cc1 (stereo unspecified)	98.3	x	-33.3	88.7	-4.4	i	1.01
COC(=O)[C@H](Cc1ccccc1)NC(=O)N1CCN(c2ccc(F)cc2)CC1	110.2	x	x	x	x	i	0.98
CCOC(=O)NC(NS(=O)(=O)c1ccccc1)(C(=O)OCC)C(F)(F)F (stereo unspecified)	94.8	-2.2	22.6	61.1	-6.0	i	0.96

Carrying on.
SMILES | RGS16-Gao | GALR2 agonist | Insulin prom inh | Insulin prom inh cell count | PKD1 inh | HSV augment | HSV augment primary fold
O=C(NC1CCCCCC1)C1c2ccccc2C(=O)N1Cc1cccs1 (stereo unspecified) | 105.8 | -1.4 | -31.2 | 138.2 | -3.6 | i | 0.97
Cc1nn(CCS(=O)(=O)c2ccc(Cl)cc2)c(C)c1Br | 100.8 | x | x | x | x | i | 0.89
O=[N+]([O-])c1ccc(-c2nc(C(Cl)Cl)c3ccccc3n2)cc1 | 91.0 | x | x | x | x | i | 0.59
CC[N+]1(CC)CC2=Cc3ccccc3CC2C1 (stereo unspecified) | 100.1 | x | 17.9 | 131.9 | -2.0 | i | 0.87
CC(C)(C)CC(=O)Nc1nn[nH]n1 | 112.7 | -0.9 | -46.1 | 48.0 | -5.1 | i | 1
COC(CNC(=O)c1ccc2c3c(onc13)-c1ccccc1C2=O)OC | 50.5 | x | x | x | x | i | 0.96
COc1cc(/C=N/NC(=O)c2cccc([N+](=O)[O-])c2)ccc1OCc1ccc(C)cc1 | 102.9 | -0.4 | 0.0 | 85.8 | -1.4 | i | 0.8
COc1ccccc1C(=O)NC(=O)OCCn1c(C)cnc1[N+](=O)[O-] | 100.2 | x | 13.3 | 156.1 | 5.0 | i | 0.74
